Screens: PubChem BioAssay, Fisher Drug Discovery Resource Center
NPYLR7 ag: mosquito NPYLR7 agonism. HEK293T NPYLR7/Galpha15, GCaMP6s calcium fluorescence. activation, % at 10 µM. 270,000 tested, 0.15% active. AID 1259423; in the data active = activation above about 40%;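 note: 0% = vehicle and 100% = reference agonist at the receptor; some compounds past the cut are filed as inactive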
NPYLR7 ag max-min: second read-out of NPYLR7 ag, no call of its own (marks repeat the call); activation, %; measured here: Max-Min RFU normalised activation; some inactives read as strong as hits;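 span of the calcium signal over five minutes; 0% = vehicle and 100% = native peptide agonist; compound fluorescence can raise it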
Active calls of the source: *; & = joins results of further samples.

mol | NPYLR7 ag | NPYLR7 ag max-min
CC(Sc1nncn1C1CC1)c1ccccc1Cl (stereo not drawn) | 7 | 5
CCOc1ccccc1N1CCN(C(=O)c2ccc3nc(N)sc3c2)CC1 | -3 | -10
COc1ccc(C2C3=C(CCCC3=O)N=C(C)C2C#N)c(OC)c1OC (stereo not drawn) | -7 | -10
CC(=O)Oc1ccc(C(C)=NN2CCN(C3c4ccccc4-c4ccccc43)CC2)cc1 | -4 | -4
C=CCSc1nnc(COc2ccccc2)o1 | -2 | -2
COCc1c(C(C)C)nc(C(C)C)c(/C=C/[C@@H](O)C[C@@H](O)CC(=O)O)c1-c1ccc(F)cc1 | -8 | -13
Cc1noc(-c2ccc(C(C)(C)C)cc2)c1C(=O)NCCc1ccc(F)cc1 | 1 | 2
Cc1ccc(CN(CCN(C)C)C(=O)c2cc(S(C)(=O)=O)ccc2C)o1 | 0 | 9
CC(=O)N1CCc2nc(C)nc(N(C)CC(O)c3ccccc3)c2CC1 (stereo not drawn) | 14 | 2
CC(CN1CCCC1)C(=O)N1Cc2cnc(-c3ccccc3)nc2C1 (stereo not drawn) | -9 | -10
Nc1cc(-c2ccc(Cl)c(Cl)c2)nn1-c1ccc(C(=O)NCCc2ccc(F)cc2)cc1 | 0 | -5
CC(=O)N1CCCC(OCc2ccc(C(F)(F)F)cc2)C1 (stereo not drawn) | -5 | 3
Cc1ccnc(SC2CC(=O)N(c3ccc4ccccc4c3)C2=O)n1 (stereo not drawn) | 6 | 10
Cc1ccc(-n2ncc3c(C)nn(CC(=O)N4CCc5ccccc54)c(=O)c32)c(C)c1 | -7 | -7
O=[N+]([O-])c1cccc2c1NC(c1cccc3ccccc13)C1CC=CC21 (stereo not drawn) | 0 | 10
Cc1c(OCC(=O)c2ccccc2)ccc2c1oc(=O)c1ccccc12 | -9 | -7
CNC(=O)COC1CN(C(=O)c2ccco2)CCC(=O)N(C)c2ccccc21 (stereo not drawn) | 4 | 10
CC(C)CCC1=NC2(CCN(C(=O)c3cc(F)cc(Cl)c3)CC2)C(=O)N1 | -3 | -5
O=C(c1ccc(Cn2nnn(-c3ccccc3)c2=O)cc1)N1CCCC1 | -7 | -6
Cc1cc(CC(C)NC(=O)Cn2nccc2C)n[nH]1 (stereo not drawn) | 4 | 2
CCSc1ncnc2sc3c(c12)CCC(C)C3 (stereo not drawn) | 2 | 1
CC(C)Cc1cc(C(=O)N(C)Cc2n[nH]c3c2CCCC3)n(C)n1 | 2 | -2
COc1ccc(NC(=O)C(C)n2cccn2)cc1Cl (stereo not drawn) | 2 | 1
COc1ccc(-n2nnc(S(=O)(=O)c3ccc(C)cc3)c2C)cc1OC | -1 | -3
CC(C(=O)NCCS(=O)(=O)N(C)C)n1cnc2ccccc21 (stereo not drawn) | -1 | -7
Cc1nn(C(=O)N(C)C)c(C)c1CN1C(=O)c2ccccc2C1=O | 10 | 8
CSc1ccc(NC(=O)NCc2nnc(SCc3ccccc3C)n2-c2cc(Cl)ccc2Cl)cc1 | -2 | 7
Cc1nn(C(C)(C)C)c(C)c1S(=O)(=O)NCc1ccoc1C | 6&2 | 3&1
CC(Sc1ncc(-c2ccc(Br)cc2)[nH]1)C(=O)NC(N)=O (stereo not drawn) | -1 | 0
Cc1nc2c(OCC(=O)C(C)(C)C)cccn2c1N(C)Cc1cccs1 | 6 | 0

17 compounds from above, ordered by length of the SMILES, lowest first:
mol | NPYLR7 ag | NPYLR7 ag max-min
C=CCSc1nnc(COc2ccccc2)o1 | -2 | -2
CC(Sc1nncn1C1CC1)c1ccccc1Cl (stereo not drawn) | 7 | 5
CC(=O)N1CCCC(OCc2ccc(C(F)(F)F)cc2)C1 (stereo not drawn) | -5 | 3
CC(C(=O)NCCS(=O)(=O)N(C)C)n1cnc2ccccc21 (stereo not drawn) | -1 | -7
Cc1nn(C(C)(C)C)c(C)c1S(=O)(=O)NCc1ccoc1C | 6&2 | 3&1
Cc1ccnc(SC2CC(=O)N(c3ccc4ccccc4c3)C2=O)n1 (stereo not drawn) | 6 | 10
Cc1c(OCC(=O)c2ccccc2)ccc2c1oc(=O)c1ccccc12 | -9 | -7
O=C(c1ccc(Cn2nnn(-c3ccccc3)c2=O)cc1)N1CCCC1 | -7 | -6
COc1ccc(C2C3=C(CCCC3=O)N=C(C)C2C#N)c(OC)c1OC (stereo not drawn) | -7 | -10
COc1ccc(-n2nnc(S(=O)(=O)c3ccc(C)cc3)c2C)cc1OC | -1 | -3
O=[N+]([O-])c1cccc2c1NC(c1cccc3ccccc13)C1CC=CC21 (stereo not drawn) | 0 | 10
CC(C)CCC1=NC2(CCN(C(=O)c3cc(F)cc(Cl)c3)CC2)C(=O)N1 | -3 | -5
CC(=O)Oc1ccc(C(C)=NN2CCN(C3c4ccccc4-c4ccccc43)CC2)cc1 | -4 | -4
CSc1ccc(NC(=O)NCc2nnc(SCc3ccccc3C)n2-c2cc(Cl)ccc2Cl)cc1 | -2 | 7
Cc1ccc(-n2ncc3c(C)nn(CC(=O)N4CCc5ccccc54)c(=O)c32)c(C)c1 | -7 | -7
Nc1cc(-c2ccc(Cl)c(Cl)c2)nn1-c1ccc(C(=O)NCCc2ccc(F)cc2)cc1 | 0 | -5
COCc1c(C(C)C)nc(C(C)C)c(/C=C/[C@@H](O)C[C@@H](O)CC(=O)O)c1-c1ccc(F)cc1 | -8 | -13

Later entries.
mol | NPYLR7 ag | NPYLR7 ag max-min
CNC(=O)[C@H]1CN(C(=O)Cc2ccccc2)[C@]2(C)C(=O)N(CC(=O)N(C)C)c3ccccc3[C@H]12 | 24 | 31
CC(C(=O)NCc1ccc(OC(F)F)cc1)S(=O)(=O)c1ccc(F)cc1 (stereo not drawn) | 12 | 7
CCOC(=O)CNC(=O)N(CCOC)CC(=O)Nc1cc(C(C)(C)C)nn1-c1ccc(C)cc1C | 12 | 15
CN(CC1(CO)CC1)C(=O)CN1CCNCC1 | 16 | 5
NC(=O)c1cccc(-c2cnc3c(Nc4cccc(OC(F)(F)C(F)F)c4)nccn23)c1 | 3 | -3
CCc1cc2c(=O)c(-c3ccc(Br)cc3)c(C(F)(F)F)oc2cc1O | 17 | 1
Cc1cc[n+](C2C(c3ccc(Br)cc3)C(C#N)C(C(C#N)C#N)=NC2(O)C2CC2)cc1 (stereo not drawn) | -4 | -6
Cc1ccc(NC(=O)CSc2nc(=O)n(CCCN3CCOCC3)c3c2CCC3)cc1Cl | -1 | -4
COc1ccc(-n2cccn2)c(-c2c(-c3ccccc3)ncn2CCCO)c1 | 2 | 1
CCN(CC)c1onc(-c2ccc(F)cc2)c1CN(CC1CC1)C(=O)c1cccc(F)c1 | 14 | 14
CC(=O)C1=C(C(F)(F)F)N(C)C(=S)N(C)C1c1ccccc1 (stereo not drawn) | 5 | 4
COc1cccc2sc(N(Cc3cccnc3)C(=O)CCSc3ccc(F)cc3)nc12 | 10 | 7
CN(C)CCN(Cc1ccc(F)cc1)C(=O)NCC1CCCOC1c1ccccc1 (stereo not drawn) | 7 | 4
CCOC(=O)c1nn(-c2ccc(F)cc2)c(=O)cc1OS(=O)(=O)c1ccc(OC)cc1 | -2 | 0
C/C(=N\OC(C)C(=O)Nc1ccc2c(c1)OCCCO2)c1sc(C)nc1C (stereo not drawn) | -2 | -4
OC[C@H]1NC[C@@H](O)[C@@H]1O | -1 | -30
Cc1cc(C(=O)N(CC2CCN(Cc3ccccc3C)CC2)CC2CCCO2)no1 (stereo not drawn) | 2 | -1
CCC1c2ccsc2CCN1C(=O)c1ccc2c(c1)CCCC(=O)N2 (stereo not drawn) | 2 | 0
O=S1(=O)N=C(N2CCN(Cc3ccccc3)CC2)c2ccccc21 | 1 | 1
CC(C)N1CCC(NS(=O)(=O)c2cc(Cl)sc2Cl)C1 (stereo not drawn) | -7&-1 | -7&-1
CC1(NO)CCCC/C1=N/O (stereo not drawn) | 0 | -3
CCOC(=O)c1scc(-c2ccc(C)cc2)c1S(=O)(=O)N1CCN(c2ccccn2)CC1 | 13 | 13
Cc1cc(CSc2nnc(-c3cccs3)n2C2CC2)no1 | -2 | 4
CCCCCC(=O)Nc1c(-c2ccc(OC)cc2)nc2ccccn12 | -11 | -1
Cn1cc(S(=O)(=O)NCCc2nc3c(s2)CCCC3)c(=O)n(C)c1=O | 2 | 0
Cc1nccn1CC1CCN(c2ncnc3c2CCNC3)CC1 | 4 | 2
CN(C)S(=O)(=O)c1cccc(C(=O)NC2CCc3ccccc32)c1 (stereo not drawn) | 2 | -2
COc1ccc(NC(=O)N(CC(=O)Nc2cc(-c3ccccc3)nn2-c2ccc(F)cc2)CC(C)C)c(OC)c1 | 8 | 17
CCN(CC)S(=O)(=O)c1ccc(NC(=O)CSc2nnc(C)n2C2CCCCC2)cc1 | 0 | 18
CC(C)Cc1ncc2c(n1)CN(C(=O)Cn1c(=O)oc3ccccc31)C2 | 2 | 1

The last 2 compounds of the part before open the next one.
mol | NPYLR7 ag | NPYLR7 ag max-min
CCN(CC)S(=O)(=O)c1ccc(NC(=O)CSc2nnc(C)n2C2CCCCC2)cc1 | 0 | 18
CC(C)Cc1ncc2c(n1)CN(C(=O)Cn1c(=O)oc3ccccc31)C2 | 2 | 1
Cc1cc(CN(C)C(=O)C(C)(C)c2ccc(Cl)c(Cl)c2)no1 | 5 | 2
COc1cc(F)ccc1NC(=O)c1ccc(N2CCCC2)nc1 | 10 | 6
O=C(C1CCCO1)N1CCOc2c(cc(-c3csc4ccccc34)cc2OCCc2ccccn2)C1 (stereo not drawn) | -1 | -1
O=S(=O)(Nc1cnc2ccccc2c1)c1ccc(Cl)c(C(F)(F)F)c1 | 11 | 7
CCc1ccccc1NC(=O)NCCn1nc(-c2cc(OC)ccc2OC)ccc1=O | 0 | -1
COc1cn(CC(=O)Nc2ccccc2)c(CN2CCN(c3ccccc3)CC2)cc1=O | -3 | -4
CCCCN(Cc1ccc(OS(C)(=O)=O)cc1)C(=O)c1ccc(OC)cc1 | 8 | 10
Cc1ccc2ncc(C(=O)NC(C)c3ccccc3)c(=O)n2c1 (stereo not drawn) | 0 | -3
COc1cc2c(cc1OC)C1CN(C(=O)c3ccccc3F)CC(=O)N1CC2 (stereo not drawn) | -1 | 12
COCCCN(CC(=O)Nc1cc(C(C)(C)C)nn1-c1cccc(C)c1)C(=O)c1cccc(Br)c1 | 20 | 21
OCC1(O)CCCN(Cc2cccc(-c3ccccn3)c2)CC1 (stereo not drawn) | 12 | 9
CCc1nnc(-c2cc3ccccc3n2CC(=O)Nc2ccc(OC)cc2OC)o1 | -2 | -1
OCC(O)CSCc1nnc(-c2ccc(Cl)cc2)o1 (stereo not drawn) | 1 | 3
Cc1c(C(=O)NC2CCCC2)sc(=O)n1CC(=O)c1ccc(F)cc1 | 2 | -3
CC1(C(=O)NS(=O)(=O)c2ccc(Cl)cc2)CCN1C(=O)Cc1ccccc1Cl (stereo not drawn) | 3 | -2
COc1ccc(C(=O)Nc2ccc(-n3nc(OC(C)C)nc3-c3ccccc3C)cc2)cc1 | 23 | 19
O=S(=O)(c1ccc(F)cc1)N1CCCC(CO)C1 (stereo not drawn) | 4 | -1
CCOC(=O)c1c(NC(=O)Cn2cnc([N+](=O)[O-])n2)sc2c1CCC2 | -13 | -23
NC(=O)c1cc2c(nc1-c1ccc3c(c1)OCCO3)CCC2 | -1 | -4
COc1cccc(C2NC(=O)CCC2[N+](=O)[O-])c1OC (stereo not drawn) | -12 | -19
CCCn1cnnc1COC(=O)c1n[nH]c2c1CCCC2 | 1 | 0
Cc1occc1C(=O)Nc1cccc(-c2nc(CNC(=O)CC3CCCCC3)c(C)o2)c1 | 19 | 4
COc1cc2c(cc1OC)C(C(C)C)N(C(=O)c1ccccc1F)CC2 (stereo not drawn) | -4 | 5
Cc1cc(C(=O)NCCN2CCCC(C)C2)n[nH]1 (stereo not drawn) | -1 | -1
CCn1c(C2CCN(C(=O)C3CC(=O)N(CC(C)C)C3)CC2)nn(C)c1=O (stereo not drawn) | 0 | -3
COC(=O)C1=C(C)NC2=C(C(=O)CC(c3ccccc3)C2)C1c1ccncc1 (stereo not drawn) | 1 | -2
CC(C)C(=O)N(Cc1csc(COc2cc(Cl)ccc2Cl)n1)C(C)C | 15 | 19
O=S(=O)(NC1CCCCC1)c1ccc(S(=O)(=O)N2CCN(c3ncccn3)CC2)cc1 | 3 | -1
Cc1c(NC(=O)C2CC(=O)N(C3CC3)C2)cccc1C(=O)N1CCc2sccc2C1 (stereo not drawn) | -2 | -3
CC(C)c1nc(CN(C)C(=O)CCc2cn3ccccc3n2)cs1 | 10 | -1
Cc1cc(C)c(C)c(S(=O)(=O)N2CCC(C(=O)N(C)Cc3ccc4c(c3)OCCO4)CC2)c1C | 5 | 4
CCCCNC(=O)C1(C)CCN1Cc1ccc(SC)cc1 (stereo not drawn) | 1 | -2
CN(CC1CCCCO1)C(=O)c1cccc2c(=O)c3ccccc3[nH]c12 (stereo not drawn) | 1 | -1
CCCCCOc1cc(C)ccc1S(=O)(=O)N1CCCC1 | 1 | 1
CCOc1ccc(C2c3cccn3CCCN2Cc2cc(OC)ccc2OC)cc1 (stereo not drawn) | 25 | 31
CC(c1nc(C2CC2)no1)N(C)CC1CCN(CCO)CC1 (stereo not drawn) | 5 | 2
C=CCN(CCC)C(=O)c1c(O)cccc1O | -1 | -3
CCOC(=O)c1nc2c(N)nc(SC)nc2[nH]c1=O | -11 | -10
COc1ccc(CN(Cc2nc3cc(C)ccc3o2)C(=O)COc2ccc(Cl)cc2)cc1 | -4 | 3
Cc1csc(-c2ccc(NC(=O)C(=O)NCC3CCCC3)cc2)n1 | 6 | 4
CC(C)CN(CC(=O)O)C(=O)OC(C)(C)C | 0 | -1
CCn1c(CC2CCN(S(=O)(=O)N3CCCCC3)CC2)nn(C)c1=O | 13 | 12
O=c1ccc(-n2ccnc2-c2cccnc2)c[nH]1 | 4 | 2
CN(CC(O)Cc1ccccc1)CC1CC(c2ccc(F)cc2)=NO1 (stereo not drawn) | -3 | 1
O=C1CC2(CCCC2)C(=O)N1Cc1coc(-c2cccs2)n1 | 3 | 8
COc1ccc(NC(=S)N2CCC(C(=O)NC(c3ccccn3)c3ccccc3C)CC2)cc1 (stereo not drawn) | -1 | -6
CCc1nc(C2CCCN2C(=O)c2ccc3c(c2)[nH]c(=O)n3C)no1 (stereo not drawn) | -7 | -6

The list is partial; the hit share may differ from the screen's.
